Assay outcomes: PubChem BioAssay, Broad Institute
Ecoli rRNA inh – reduced GFP signal of wild-type E. coli, primary screen, bacterial rRNA inhibitor project, GFP/RFP fluorescence, OD600, single point | E. coli WT GFP vs humanized-ribosome RFP mutants, 24 h; active compounds read low; DMSO median 0, no signal -100 | GFP signal change (wild-type ribosome), % (no concentration beside the values) | 350,000 tested, 1.6% active;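 active means significant combined selectivity score with lowered wild-type GFP, culture density cut under 30%, mutant RFP and density less affected; inactive means any of these conditions unmet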; further: one replicate is shown; some compounds called inactive have numbers as strong as hits
FGF22 binding – binders of human FGF22 protein, primary screen, FGF22 synaptogenesis inhibitor project, biophysical, thermal shift, single point; Fibroblast growth factor 22 (Homo sapiens), Q9HCT0; recombinant FGF22 thermal shift, SYPRO orange fluorescence; percent of sucrose octasulfate shift, DMSO zero; calls only at 9.99 µM; 340,000 tested, 1.5% active; AID 651658, 2012;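 active means melting point raised past a set limit in the mean and every replicate; inconclusive means no clear call; three in four hits are not shown here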
Target sequence (Q9HCT0 whole entry, looked up): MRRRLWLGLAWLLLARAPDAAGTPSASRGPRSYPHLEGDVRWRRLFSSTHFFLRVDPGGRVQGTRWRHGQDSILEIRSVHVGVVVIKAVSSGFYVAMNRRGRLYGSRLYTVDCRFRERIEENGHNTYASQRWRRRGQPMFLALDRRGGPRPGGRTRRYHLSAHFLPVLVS
T cruzi repl – inhibitors of intracellular T. cruzi growth, primary screen, luminescence, NIH3T3 host cells. 300,000 tested, 1.4% active. inhibition, % (test concentration not listed). T. cruzi beta-gal in NIH3T3, 90 h;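 active means mean inhibition across valid replicates above about 55%, limit read from the data; inconclusive means mean below that limit but half or more replicates reach it; inactive means mean below it, under half of replicates reach it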;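 further: signal also drops with host cell toxicity which is not excluded here; 0% = plate median of DMSO wells and 100% = zero luminescence signal; higher percent means less beta-gal luminescence so fewer parasites; stock transfer was 50 nL into about 50 µL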
ALR H2O2 inh – inhibitors of human ALR sulfhydryl oxidase, primary screen, biochemical, H2O2 detection, HRP-luminol luminescence, single point | FAD-linked sulfhydryl oxidase ALR (Homo sapiens), P55789 | purified ALR, DTT oxidation | inhibition, % (no concentration beside the values) | 290,000 tested, 3.8% active | AID 485317, 2010;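 active means mean and each replicate at 75% or more; inconclusive means only one of the two met; inactive means neither met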;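 further: stock transfer was 7.5 nL into about 7.5 µL; 0% = neutral wells and 100% = wells with inactivated enzyme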
Target sequence (P55789 whole entry, looked up): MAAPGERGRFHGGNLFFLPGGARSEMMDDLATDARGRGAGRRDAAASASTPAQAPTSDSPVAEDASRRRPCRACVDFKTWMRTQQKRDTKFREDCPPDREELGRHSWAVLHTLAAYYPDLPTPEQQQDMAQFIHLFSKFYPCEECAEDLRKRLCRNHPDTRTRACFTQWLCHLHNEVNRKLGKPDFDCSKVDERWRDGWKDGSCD
Beta cell apopt – inhibitors of cytokine-induced beta cell apoptosis, primary screen, luminescence | INS-1E cytokine-induced death, ATP luminescence, 48 h; percent of positive-control rescue, neutral wells zero | protection from apoptosis, % (no concentration beside the values) | 300,000 tested, 0.8% active | AID 435005, 2010;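 active means all replicates at 75% or more, or half of them and the mean; inconclusive means half reach 75% but not the mean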;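 further: 0% = cytokine-treated negative control wells and 100% = positive control rescue; higher means more ATP so stronger rescue from cytokine killing; wells of about 40 µL received 100 nL stock; the first replicate is given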
Calb FLC – C. albicans growth inhibition with fluconazole, primary screen, CaCi-2 strain, Alamar Blue fluorescence; C. albicans CaCi-2 (fluconazole-resistant clinical isolate) + fluconazole, 48 h; growth inhibition, % (concentration not given with the values); 300,000 tested, 0.57% active; AID 1979, 2009;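 active means most replicates above 75%; inconclusive means exactly half above 75%; inactive means most below 75%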;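 further: all wells also contain fluconazole at 8 µg/ml as a sub-toxic cotreatment; 0% = median of DMSO wells and 100% = median of geldanamycin control wells; wells of about 8 µL received 7.5 nL stock; the first replicate is given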
RanGTP-Impb inh – inhibitors of RanGTP-importin-beta interaction, primary screen, biochemical, FRET, CFP-Ran, YFP-importin-beta, homogeneous; Ran GTPase (GTP-bound) - importin-beta complex; cell-free CFP-Ran/YFP-importin-beta FRET ratio; inhibition, % (test concentration not listed); 300,000 tested, 1.1% active;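 active means most replicates above 15%; inconclusive means exactly half above 15%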;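 further: 0% = DMSO wells and 100% = Ran loaded with GDP instead of GTP; wells of about 40 µL received 100 nL stock; the first replicate is given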
MLL AF4-AF9 inh – inhibitors of AF4 peptide binding to AF9, primary screen, biochemical, AlphaScreen, biotin-AF4 peptide, FLAG-AF9, single point; Protein AF-9 (Homo sapiens), P42568; inhibition, % at 10 µM; 350,000 tested, 0.47% active;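 active means every replicate reaching a set inhibition limit, whatever the replicate mean, cut at about 25% in these data; inconclusive means mean inhibition reaches that limit but some replicates miss it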;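 further: 0% = plate neutral control median and 100% = total signal loss; the record names both 10 and 1 µM as test concentration; the first replicate is given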
Target sequence (P42568 whole entry, looked up): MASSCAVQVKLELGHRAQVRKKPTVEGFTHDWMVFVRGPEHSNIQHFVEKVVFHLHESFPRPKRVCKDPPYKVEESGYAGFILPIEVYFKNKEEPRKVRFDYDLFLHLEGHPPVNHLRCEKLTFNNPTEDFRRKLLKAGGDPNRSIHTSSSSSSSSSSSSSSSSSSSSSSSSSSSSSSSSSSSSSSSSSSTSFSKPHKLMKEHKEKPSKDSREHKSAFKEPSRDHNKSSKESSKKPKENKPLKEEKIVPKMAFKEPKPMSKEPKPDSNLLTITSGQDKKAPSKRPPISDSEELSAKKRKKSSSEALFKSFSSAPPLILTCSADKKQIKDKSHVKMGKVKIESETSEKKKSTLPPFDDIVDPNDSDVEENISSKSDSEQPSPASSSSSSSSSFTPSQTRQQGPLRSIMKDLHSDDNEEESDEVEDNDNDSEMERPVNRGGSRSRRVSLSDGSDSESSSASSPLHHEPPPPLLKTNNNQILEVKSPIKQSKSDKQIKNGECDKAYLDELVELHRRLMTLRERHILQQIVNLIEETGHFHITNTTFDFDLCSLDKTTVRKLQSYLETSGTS
Ecoli rRNA inh OD600 – recorded beside Ecoli rRNA inh, whose call it bears; OD600 change, %; measured here: OD600 growth;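 optical density of the mix in the first replicate; 0 = DMSO median and -100 = no signal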
Ecoli rRNA inh RFP – also measured in Ecoli rRNA inh; calls as there; RFP signal change, %; measured here: RFP humanized mutant strains;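 first replicate; 0 = DMSO median and -100 = no signal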
Starred values were filed as active, the others as inactive; i = inactive; ? = inconclusive; nt = no result given. The list is partial; count on the stated rates, not on these rows.

SMILES	Ecoli rRNA inh	Ecoli rRNA inh OD600	Ecoli rRNA inh RFP	FGF22 binding	T cruzi repl	ALR H2O2 inh	Beta cell apopt	Calb FLC	RanGTP-Impb inh	MLL AF4-AF9 inh
CCc1nc2ccccc2c(C(=O)OCC(=O)NC2CCCC2)c1C	-12	-49	-8.8	i	nt	3	-12	nt	nt	2.1
CN(CC(=O)Nc1ccc(S(=O)(=O)N2CCCC2)cc1)Cc1ccc(Cl)c(Cl)c1	nt	nt	nt	nt	56*	-2	1	4	5.9	nt
Cc1cc(C(=O)NC2CCCc3ccccc32)c(C)o1 (stereo not given)	nt	nt	nt	nt	-4	7	2	21	1.1	nt
Cc1cc(NC(=O)COC(=O)c2ccc(F)c(S(=O)(=O)N3CCOCC3)c2)no1	nt	nt	nt	nt	-4	-3	-1	-3	-1.1	nt
CN(C(=O)c1ccc(NC(=O)Cc2ccc(NC(=O)C3CCCN(C(=O)CCc4ccccc4)C3)cc2)cc1)C1CC1 (stereo not given)	-8	-4	-2.3	i	nt	-3	11	nt	nt	-3.3
OC(COc1ccccc1)CN1C2=NCCCN2c2ccccc21 (stereo not given)	nt	nt	nt	nt	13	1	nt	-4	2.4	nt
O=C(NCc1cccs1)C(=O)NCC(c1ccco1)N1CCN(c2ccc(F)cc2)CC1 (stereo not given)	-16	-18	-2.4	i	6	20	6	2	3.6	-8.9
Cc1c(Nc2nc(-c3ccccc3)cs2)c(=O)n(-c2ccccc2)n1C	17	14	1.9	i	4	nt	-6	-5	-0.1	-3.3
COc1cc(OC)c(S(=O)(=O)Nc2ccc(C(=O)N3CCCC3)cc2)cc1NC(C)=O	20	10	0.2	nt	-2	0	-12	-12	2.2	-1.9
CC(=O)Nc1cc(C(=O)OCC(=O)c2ccccc2)ccc1C	nt	nt	nt	nt	-15	-3	5	4	2.6	nt
Cc1cccc(NC(=O)C2CCN(C(=O)c3ccco3)CC2)c1C	-14	-10	-0.2	i	-18	-9	0	8	0.1	0.1
O=C(NN1CCN(Cc2ccccc2)CC1)c1ccc(N2CCOCC2)c([N+](=O)[O-])c1	14	28	-2.2	i	5	32	2	12	0.8	0.3
COc1ccccc1-c1c(-c2ccc(OCC(=O)NN)cc2O)n[nH]c1C(F)(F)F	0	5	1.8	i	-6	-3	-7	-5	-2.5	4.5
COCCCNC(=S)Nc1ccc(CC(=O)O)cc1	nt	nt	nt	nt	-9	48	-2	3	0.1	nt
CCOC(=O)C1CCN(CCC(=O)Nc2ccccc2Cl)CC1	nt	nt	nt	nt	0	-4	-1	14	4.4	nt
Nc1ccc(OC(=O)Nc2ccc(O)cc2)cc1	-2	8	5.8	i	-4	99*	-10	10	1.7	4.1
O=C1N(Cc2cccc(Cl)c2)C[C@@H]2C[C@@H](c3ccc4nonc4c3)N3CCC[C@@]123	-32	-36	12	i	23	-5	-2	29	0.6	14
COc1ccc(C(=O)OCCCOC(=O)c2ccc(OC)cc2OC)c(OC)c1	1	-27	1.5	i	7	-1	0	-5	3.6	-0.5
NC(=O)c1cc2ccccc2o/c1=N/NC(=O)c1cccc(F)c1	7	20	5.9	i	-8	2	-2	-5	-7.0	2.0
CSc1nc(N)nc2c1ncn2CC(=O)NCc1ccc2[nH]ccc2c1	-3	5	3.8	i	nt	nt	0	nt	nt	0.0
O=C(CSc1nc2ccccc2c(=O)n1Cc1ccc(F)cc1)NCC1CCCO1 (stereo not given)	4	5	-2.4	i	nt	-7	-5	nt	nt	0.7
Cc1c(C)c2ccc(OCC(=O)Nc3ccccn3)cc2oc1=O	11	10	-0.4	i	2	-10	-8	3	-0.3	-5.5
O=C(NCc1ccccc1)c1cccc(Br)n1	4	0	0.6	i	-15	-6	-5	-9	0.6	-1.2
CCO[C@@H]1OC(C(=O)NCc2ccccc2)=C[C@H](c2coc3ccccc3c2=O)[C@H]1CCCO	-15	-37	13	i	-6	1	-11	4	9.0	4.0
CCOC(=O)c1[nH]c2ccccc2c1NC(=O)c1ccc(S(=O)(=O)N2CCOCC2)cc1	7	12	-0.5	i	-3	nt	0	-4	0.3	5.6
Cc1ccc(S(=O)(=O)Cc2ccccc2Cl)cc1	0	5	0.0	i	-9	nt	-3	3	?	-5.5
O=C(O)c1cccnc1Cl	3	10	2.4	i	-15	1	4	-5	0.3	-1.7
CCc1cccc(C)c1NC(=S)N(CCN(C)C)C(C)c1ccco1 (stereo not given)	9	0	-0.2	i	6	7	-3	-3	0.8	3.2
COCCCNC(=O)Cc1c(C)c2c(cc(C)c3c(C)c(C)oc32)oc1=O	11	9	0.0	i	-13	nt	nt	12	-1.1	-1.7
NC(=O)c1ccsc1NC(=O)COC(=O)c1cccnc1Cl	-4	-4	3.0	i	nt	94*	1	nt	nt	-0.8
Clc1cc(Br)ccc1OCCOCCN1CCCC1	9	3	1.3	i	59*	-19	0	-33	0.9	-2.0
N#Cc1ccc(C(=O)OCCc2cc3ccccc3c(=O)o2)cc1	8	14	-0.1	i	nt	-1	-9	nt	nt	-2.2
Cc1ccc(C(=O)CC(=O)c2ccccc2C)c(O)c1	-49	-76	-27	i	5	-2	4	81*	1.5	5.0
Cc1ccc(C(=O)N2CC=C(c3ccccc3)CC2)s1	-26	-21	1.1	i	-5	-1	2	-1	nt	-1.8
CC1(c2nnc(Cc3ccccc3)o2)CC(c2ccccc2F)=NO1 (stereo not given)	-13	-27	-10	i	-1	2	-2	14	0.4	-4.9
CCOc1ccc(N=C2SC(C(=O)O)CC(=O)N2C)cc1 (stereo not given)	nt	nt	nt	nt	9	-6	5	2	-0.1	nt
CCOc1ccc(NS(=O)(=O)c2csc(C(N)=O)c2)cc1	4	4	2.7	i	1	0	-3	3	-1.6	0.3
Cc1ccc(C(=O)C2CCN(CC(=O)NC3CCCC3)CC2)cc1	3	2	-1.6	i	9	-1	0	-3	0.1	-0.8
Cc1nn(C(=O)c2ccco2)c(C)c1Sc1ccccc1	nt	nt	nt	nt	-14	-5	-8	-9	5.6	nt
O=C(Cc1ccccc1)NCC(=O)OCc1cccc([N+](=O)[O-])c1	10	12	-1.1	i	-2	3	-4	-2	-0.5	-0.4
COc1ccc2oc(C(=O)OCC(=O)N(Cc3ccccc3)C(C)(C)C)c(C)c2c1	10	9	1.7	i	-10	-9	3	-5	6.1	-1.6
COc1ccc(-n2ccc(=O)c(C(=O)O)n2)c(OC)c1	1	3	0.7	i	-5	-7	-5	2	-0.7	1.5
CC(=O)Nc1ccc(S(=O)(=O)NCC2CCC(C(=O)NCCC(C)C)CC2)cc1 (stereo not given)	nt	nt	nt	nt	-4	-6	-4	1	-1.3	nt
O=C(NCC(=O)N1CCN(c2ccccc2F)CC1)c1ccc(Br)o1	9	3	1.1	i	-15	7	2	0	2.6	-2.8
COC1=Cc2c(ccc3ccc(=O)oc23)OC1(C)C	nt	nt	nt	nt	24	0	-7	4	3.1	nt
CN(CC(=O)Nc1ccccc1Cl)C(=O)c1cccc(S(=O)(=O)N2CCN(c3ccc(F)cc3)CC2)c1	-25*	-11*	1.2*	i	19	-1	49	-13	?	2.7
C=CCS/C(=N\n1cnc2ccccc2c1=O)N1CCCCC1	nt	nt	nt	nt	-11	nt	-9	36	3.6	nt
Nc1c(Cl)cc(Cl)cc1C(=O)OCC(=O)NC1CC1	nt	nt	nt	nt	-3	-10	-4	27	9.9	nt
CCOC(=O)C(CC)(CCC(=O)O)c1csc(N)n1 (stereo not given)	nt	nt	nt	nt	-20	-13	-1	-3	4.3	nt
O=C(C1CCC(CNS(=O)(=O)c2cccc3cccnc23)CC1)N1CCCC1 (stereo not given)	1	-6	-7.3	i	15	40	-6	-3	-1.6	-0.5
O=C(c1cc2ccccc2oc1=O)N(Cc1cccc(Br)c1)C1CCS(=O)(=O)C1 (stereo not given)	-1	-10	2.4	i	nt	-4	-2	-16	-1.1	1.4
O=C(NCCc1ccccc1)c1ccccc1NC(=O)C1CCCO1 (stereo not given)	7	1	-2.5	i	1	3	-4	-6	-0.3	-1.0
O=C(CCN1CCN(c2ccccc2)CC1)Nc1ccc(Cl)cc1	nt	nt	nt	nt	-3	2	-2	-7	-1.2	nt
COc1ccccc1OCC(=O)NC1CCCCCCC1	-4	-15	5.1	i	nt	1	4	nt	nt	-0.1
COC(=O)[C@]1(Cc2ccccc2)N[C@H](CN(C)C(=O)Nc2ccc(OC)cc2)[C@@H]2C(=O)N(Cc3ccccc3)C(=O)[C@@H]21	-3	-11	0.7	i	nt	nt	5	nt	nt	3.5
O=[N+]([O-])c1ccc(-c2cn3ccccc3n2)cc1	16	0	-2.1	i	-26	nt	nt	-4	-2.1	-4.7
OC(COCCOc1ccc(Br)cc1)CN1CCCCC1 (stereo not given)	nt	nt	nt	nt	20	-3	8	-1	2.4	nt
Cc1nn(CC(=O)N(C)C2CCC(C)CC2)c(C)c1S(=O)(=O)N(C)C (stereo not given)	3	9	-1.9	i	nt	-2	2	nt	nt	-18
Cc1ccc2c(c1)C(O)(CC(=O)/C=C/C=C/c1ccccc1)C(=O)N2 (stereo not given)	nt	nt	nt	nt	-9	50	-15	-2	3.0	10
O=C(COc1cccnc1[N+](=O)[O-])NCCc1ccc(F)cc1	5	-6	-0.3	i	-2	-9	0	?	-3.4	0.3

Further results follow:
SMILES	Ecoli rRNA inh	Ecoli rRNA inh OD600	Ecoli rRNA inh RFP	FGF22 binding	T cruzi repl	ALR H2O2 inh	Beta cell apopt	Calb FLC	RanGTP-Impb inh	MLL AF4-AF9 inh
CCc1ccc(OC(=O)c2ccn(CC)n2)cc1	nt	nt	nt	nt	1	-9	-4	-9	-0.7	nt
Cc1cccc(-n2c(SCC(=O)NC3CCCC3)nnc2-c2ccoc2C)c1	nt	nt	nt	nt	7	6	-4	17	8.2	nt
CC(C)CC(COCc1ccc(C(F)(F)F)cc1)N1CCN(C(=O)c2ccc(C(F)(F)F)cc2)CCC1=O (stereo not given)	4	4	2.5	i	30	-3	14	7	2.3	nt
O=C(N/N=C/C(Cl)=C/c1ccc([N+](=O)[O-])cc1)C(=O)Nc1ccccc1C(=O)O	6	-5	4.7	i	7	64	1	15	2.9	6.4
Cc1ccc2nc(NC(=O)CCn3cccc3)sc2c1	-29	-15	-9.4	i	-1	1	-2	-13	4.2	-0.7
CC(=O)Nc1ccc(S(=O)(=O)N(C)CC(=O)OCCOc2cccc(C)c2)cc1	-3	-8	1.0	i	-1	-1	-5	-5	5.8	0.1
O=C(CCOc1ccccc1)Nc1ccccc1F	nt	nt	nt	nt	-5	-9	-6	-9	0.3	nt
O=C(Nc1ccccn1)C1CCN(S(=O)(=O)c2cccs2)CC1	-1	-1	-1.0	i	-5	0	-8	-16	4.5	-3.1
